Source: PubChem BioAssay
MT1-MMP reporter: inhibitors of MT1-MMP promoter transcription, cell-based, luciferase reporter, luminescence (AID 618). 87,000 compounds, 0.62% hits. calls from a first round at 10 µM; hits with a dose series show EC50 in µM. MT1-MMP promoter luciferase reporter cells, luminescence;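 active means over half of the reporter light lost at 10 µM or EC50 under 50 µM; inactive means the rest and hits that failed the dose series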;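 further: actives suppress MT1-MMP promoter-driven transcription so potencies describe inhibitors; HT1080 fibrosarcoma cells; overnight exposure; toxic or luciferase-blocking compounds were not removed from the actives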
Hsc70: Hsc70 inhibitors, probe displacement, primary screen, biochemical, fluorescence polarization (AID 568) | Hsc70 fluorescence polarization, probe displacement; higher % means a stronger effect; strong numbers were not always called active | one-dose displacement, % at 20 µM; IC50 in µM for titrated hits | 83,000 tested, under 10 active;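 active means displacement above 50% without optical interference and an IC50 on retest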;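 further: ATPase domain with a fluorescein-tagged ATP probe; 0% = vehicle and 100% = excess ADP; read after one hour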
WNV protease inh: inhibitors of West Nile virus NS2B-NS3 protease; P06935; WNV NS2B-NS3 protease, fluorogenic substrate Ex360/Em465; active compounds read low; AID 577; z-score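 (tested at a level between 10 and 100 µM)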; 65,000 compounds, 0.18% hits;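 active means z-score at -3 or under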;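 further: score is relative to mean and spread of the compound wells of a plate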
Target sequence (P06935 1371-1501 limits assumed): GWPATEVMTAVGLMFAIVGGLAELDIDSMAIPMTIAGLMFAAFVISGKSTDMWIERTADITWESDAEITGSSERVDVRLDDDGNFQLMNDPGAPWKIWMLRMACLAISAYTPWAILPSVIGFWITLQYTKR
Target sequence (P06935 1502-1679 limits assumed): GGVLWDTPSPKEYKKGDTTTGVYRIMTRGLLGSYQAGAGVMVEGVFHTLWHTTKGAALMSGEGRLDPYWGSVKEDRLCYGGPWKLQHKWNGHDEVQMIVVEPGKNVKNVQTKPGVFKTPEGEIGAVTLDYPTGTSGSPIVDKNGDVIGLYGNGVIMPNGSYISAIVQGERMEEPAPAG
An asterisk follows results filed as active; i = inactive; / = no result given; + = active, no number; & = joins results of further samples. Outcome played no part in choosing rows. About 0.77% of those tested had a hit in this group.

SMILES | MT1-MMP reporter | Hsc70 | WNV protease inh
COc1ccc(OC)c(C2/C(=C(\O)c3ccc4c(c3)OCCO4)C(=O)C(=O)N2CCCN(C)C)c1 (stereo unspecified) | i | 0.5% | 0.0047
CCCCOC(=O)c1cc(=O)[nH]c2ccccc12 | i | -7.5% | 0.37&1.8
O=C(Nc1cc(C(F)(F)F)ccc1N1CCCC1)c1ccc2c(c1)OCO2 | i | 2.0% | -0.34
FC(F)(F)c1cccc(-c2nnc3ccc(C(F)(F)F)cn23)c1 | i | 2.0% | 1.7
COCCN1C(=O)c2ccc(C(=O)O)cc2C1=O | i | -0.5% | 1.4
O=C(CCN1CCN(c2ccc(F)cc2)CC1)Nc1ccc(F)cc1 | i | -1.6% | 0.29
COc1cccc(NC=C2C(=O)OC3(CCCCC3)OC2=O)c1 | i | -0.1% | 1.2
CCCc1nnc(NC(=O)NCCN2C(=O)C3C4C=CC(C4)C3C2=O)s1 (stereo unspecified) | i | -0.3% | -0.96
Nc1cccc(C(=O)Nc2ccc3nc(-c4cccnc4)[nH]c3c2)c1 | i | -7.2% | /
N#Cc1nc(-c2ccco2)oc1N1CCN(C(c2ccccc2)c2ccccc2)CC1 | i | -12% | -1.2
NC(=O)SCC(=O)Nc1cccc(Cl)c1 | i | -6.7% | -0.14
CC(=O)N(c1ccccc1)c1nc(C)cc(C)c1C#N | i | 2.0% | /
COCCNS(=O)(=O)c1ccc(SC)cc1 | i | 4.8% | -0.68
Cc1ccc(-c2c(C(=O)N3CCOCC3)oc(=O)c3ccccc23)cc1 | i | 0.7% | 0.74
CCOc1ccc(NCc2nnc(SCC(=O)Nc3cc(C)on3)n2-c2ccccc2OC)cc1 | i | 0.1% | 0.64
O=C1Nc2ccccc2OC1CC(=O)N1CCOCC1 (stereo unspecified) | i | 4.5% | 1.2
CCn1c(NCc2cccs2)nc2ccccc21 | i | -0.9% | 0.11
CCc1ccc(NC(=O)CCNS(=O)(=O)c2cccc3nonc23)cc1 | i | -22% | -0.02
CCOC(=O)c1cc2c(ccn2C)n1CC(=O)N1CCCC(C)C1 (stereo unspecified) | i | 0.2% | /
Cc1ccc2nc(NC(=O)CSc3nc4c(c(=O)n3C)SC(C)C4)sc2c1 (stereo unspecified) | i | -16% | 1.1
CCCCN(CC)C(=O)c1cccc(Cl)c1 | i | -1.3% | 1.3
c1ccc(NC2=Nc3ccccc3CS2)cc1 | i | 4.7% | 0.63
O=c1cc(-c2ccco2)nc(-c2cccs2)o1 | i | -0.9% | 1.2
Cc1cc(C)n(-c2nnc3n2N=C(c2ccccc2)CS3)n1 | i | -0.3% | 1.7
N#Cc1nc(-c2ccccc2F)oc1NCCN1CCOCC1 | i | 3.3% | 0.75

Later entries
SMILES | MT1-MMP reporter | Hsc70 | WNV protease inh
Cn1c(CC(=O)Nc2ccccc2)nnc1SCC(=O)c1ccccc1 | i | -9.9% | 0.36
Cc1nc(-c2ccc(C(=O)O)cc2)cs1 | i | -3.7% | -0.73
COC(=O)c1ccc(C)c(NS(=O)(=O)c2ccc(NC(C)=O)cc2)c1 | i | -0.1% | -0.27
COc1ccc(-c2noc(CCC(=O)Nc3nc4ccccc4s3)n2)cc1 | i | 2.0% | 0.77
CCOC(=O)CNC(=O)c1cc(-c2ccc3c(c2)OCCO3)oc1C | i | 0.1% | 0.4
CN1C(=O)CC(Sc2ccccc2C(=O)O)C1=O (stereo unspecified) | i | 6.0% | /
Cc1cnc(-c2nnc(N(C)C(=O)C3CCCO3)s2)cn1 (stereo unspecified) | i | -2.1% | -0.96
Cc1noc(C)c1COC(=O)c1cc2c3ccccc3n(C)c2s1 | i | -4.7% | -0.25
Cc1ccc(CNC(=O)C2CCN(S(=O)(=O)N3CCOCC3)CC2)cc1 | i | 2.4% | 0.18
COc1cc(-c2noc(-c3cccs3)n2)cc(OC)c1OC | i | 1.2% | -1
Cc1cc(C)nc(-n2nc(C)cc2NC(=O)CN2CCC(C)CC2)n1 | i | 1.6% | -1.4
O=C(c1cn(-c2ccccc2)nc1-c1cccnc1)N1CCCCC1 | i | 7.7% | 0.51
COc1ccc(C(=O)NC(=O)Nc2cc(C)ccn2)cc1 | + | -0.9% | 1.1
Cc1cccc(N2CCN(S(=O)(=O)c3cnc[nH]3)CC2)c1C | i | 1.0% | 0.02
CCn1c(SCc2nc(-c3ccccc3)no2)nc2ccccc21 | i | 1.9% | -0.49
Cc1no[n+]([O-])c1COc1ccccc1/C=C1\NC(=S)NC1=O | i | -2.2% | /
O=C1c2ccccc2C(=O)c2c1ccc1c(=O)n(C3CCCCC3)[nH]c21 | i | 3.6% | /
O=C(Cn1cc2c(n1)CCCCC2)N1CCc2ccccc21 | i | -0.8% | -0.61
CSc1cccc(NC(=O)CN(Cc2ccc(Cl)cc2)S(C)(=O)=O)c1 | i | 1.6% | /
COc1ccc(CC(=O)N2CCc3ccccc32)cc1 | i | 2.6% | /
Cc1ccc(C(=O)Oc2oc(-c3ccco3)nc2C=Nc2ccc(Cl)cc2)cc1 | i | -2.1% | /
Cc1ccc(S(=O)(=O)N2C3C=CC(C3)C2C(=O)O)cc1 (stereo unspecified) | i | -0.5% | 1
CCN1CCN(Cc2nc3c(c(=O)n(C)c(=O)n3C)n2Cc2cccc3ccccc23)CC1 | i | 5.1% | 0.47
CC(=Nc1ccccc1)C1=C(O)CSC1=O | i | 6.5% | /
Cc1ccc(C(=O)NCC(C)(C)O)cc1 | i | 7.6% | -0.67

Remaining list, next part:
SMILES | MT1-MMP reporter | Hsc70 | WNV protease inh
COc1cccc(N2CC(O)=C(c3nc4ccccc4c(=O)[nH]3)C2=N)c1 | i | 4.0% | 0.79
Cc1ccccc1C(=O)N1CCC(C(=O)Nc2ccc(F)cc2)CC1 | i | -1.3% | 0.28
CC(C)CC(=O)N=C1SC2CS(=O)(=O)CC2N1CCc1ccccc1 (stereo unspecified) | i | -2.7% | 1.2
COc1cccc(C(=O)NCCN2CCOCC2)c1 | i | 2.6% | /
Cc1cc(C)cc(NC(=O)CN(Cc2ccccc2)S(C)(=O)=O)c1 | i | 3.4% | /
COC(=O)C1C(c2ccc(Cl)cc2)NC(c2ccc(Cl)cc2)C(C(=O)OC)S1(=O)=O (stereo unspecified) | i | 2.6% | /
Cc1cccc(-c2nnc(SCC(=O)NCc3ccc4c(c3)OCO4)n2C)c1 | i | -7.7% | /
C=CCn1c(C)c(C(C)=O)c(N2CCN(c3ccccc3)CC2)nc1=S | i | 1.7% | /
COc1cc(C(=O)N(CCCO)Cc2cc3ccc(C)c(C)c3[nH]c2=O)cc(OC)c1OC | i | -7.6% | 0.1
CCOc1ccccc1NC(=O)C1Cc2ccccc2CN1S(C)(=O)=O (stereo unspecified) | i | 1.9% | -0.39
CCOC(=O)N1CCC(NC(=O)c2cc3c(C)nc4ccccc4c3o2)CC1 | i | 2.9% | -1.4
CNC(=O)c1ccc(-c2sc3nc(N4CCOCC4)c4c(c3c2N)CC(C)(C)OC4)o1 | i | 5.5% | /
Cc1ccc(C)c(NC(=O)CCn2nc(C)cc2C)c1 | i | -4.3% | -0.08
O=c1c2[nH]c3ccc(F)cc3c2ncn1CCCN1CCOCC1 | i | -4.8% | -0.98
CC(C)(C)n1nnnc1C(c1cccnc1)N1CCN(c2cccc(C(F)(F)F)c2)CC1 (stereo unspecified) | i | -3.4% | /
C[n+]1cc[nH]c1SCC(=O)c1ccccc1 | i | -0.7% | /
CC(CN1CCOCC1)OC(=O)c1ccc2c(c1)OCCO2 (stereo unspecified) | i | 0.2% | 0.39
CC(C)NC(=O)c1c2c(nc3ccccc13)CCCC2 | i | 1.3% | /
O=C(OCc1nnc(-c2ccccc2)o1)c1cc(=O)c2ccccc2o1 | i | 2.2% | 0.24
Cc1csc(C(C#N)C(=O)c2cc3ccccc3o2)n1 (stereo unspecified) | i | -1.5% | -0.8
O=C(NCCCN1CCOCC1)c1ccccc1-c1ccccc1 | i | 2.0% | -1.4
O=C(Nc1nnc(C2CC2)s1)c1cc(S(=O)(=O)N2CCN(c3ccccc3)CC2)ccc1Cl | i | -4.1% | /
O=C(O)c1ccc(F)c(S(=O)(=O)Nc2ccccc2Cl)c1 | i | 10% | -1.1
CCCNC(=O)c1noc2c1CCc1ccccc1-2 | i | 2.0% | 0.39
Cc1ccc(OCCN2C(=O)OC(C)(C)C2(C)O)cc1 (stereo unspecified) | i | -0.3% | -0.23

5 compounds drawn at random from those above:
SMILES | MT1-MMP reporter | Hsc70 | WNV protease inh
CC(C)CC(=O)N=C1SC2CS(=O)(=O)CC2N1CCc1ccccc1 (stereo unspecified) | i | -2.7% | 1.2
COC(=O)c1ccc(C)c(NS(=O)(=O)c2ccc(NC(C)=O)cc2)c1 | i | -0.1% | -0.27
O=C(Nc1nnc(C2CC2)s1)c1cc(S(=O)(=O)N2CCN(c3ccccc3)CC2)ccc1Cl | i | -4.1% | /
CC(C)NC(=O)c1c2c(nc3ccccc13)CCCC2 | i | 1.3% | /
COC(=O)C1C(c2ccc(Cl)cc2)NC(c2ccc(Cl)cc2)C(C(=O)OC)S1(=O)=O (stereo unspecified) | i | 2.6% | /

Going on with the list:
SMILES | MT1-MMP reporter | Hsc70 | WNV protease inh
CCOc1ncccc1C(=O)OCC(=O)c1ccc(Cl)s1 | i | 8.3% | /
N#Cc1c(/N=C/c2cc3ccccc3s2)sc2c1CCC2 | i | -2.7% | /
O=C(CNCCC1=CCCCC1)Nc1ccccc1N1CCCCC1 | i | 2.9% | -0.29
CCCn1c(SCCc2ccccc2)nc2c1c(=O)[nH]c(=O)n2C | i | -3.2% | 0.51
Cc1cc(C)n(C(=O)c2ccc(S(=O)(=O)N3CCCC3)cc2)n1 | i | -1.1% | 0.27
CCCOC(=O)CCCCC1SCC(NC(=O)OC)C1NC(=O)OC (stereo unspecified) | i | 5.3% | -0.09
Cc1ccc(OCC(O)Cn2c(=N)n(CCN3CCCCC3)c3ccccc32)cc1 (stereo unspecified) | i | -6.0% | 0.45
Cc1cc(N2C(=O)CC(Cc3ccccc3)C2=O)no1 (stereo unspecified) | i | -6.8% | -0.38
CCCCn1nc(-c2ccccc2)c2nc3ccccc3nc21 | i | 72% | /
CC(=O)NCCOc1nc(N(C)C)nc(N(C)C)n1 | i | -5.0% | -1.6
CSc1nsc(SCC(=O)NC2CCCCC2)n1 | i | 6.7% | -1.1
N#Cc1cc(Cl)c(N2CCOCC2)cc1C#N | i | 1.3% | 2.4
COC(=O)C1=C(C)N=C2SC(C)C(=O)N2C1/C=C/c1ccccc1 (stereo unspecified) | i | -0.5% | /
O=C1CC(SCCO)C(=O)N1c1ccc(Oc2ccccc2)cc1 (stereo unspecified) | i | -2.0% | 0.7
CCOC(=O)CNC(=O)COc1ccc(Cl)cc1Br | i | -3.9% | -0.69
COC(=O)C1=CN(C2CC2)C=C(C(=O)OC)C1c1ccc(C(=O)OC)cc1 | i | 3.4% | 0.38
COc1cccc(C2=NOC(C(=O)NC3CCCCC3)C2)c1 (stereo unspecified) | i | 8.3% | -0.88
COc1ccc(N2CCN(C(CNC(=O)c3ccc4c(c3)OCO4)c3cccnc3)CC2)cc1 (stereo unspecified) | i | -7.0% | 0.67
NC(=O)CCCC1=NS(=O)(=O)c2ccccc2N1 | i | -8.3% | 0.06
Cc1ccc(S(=O)(=O)c2cc3c(=O)n4cccc(C)c4nc3n(CC3CCCO3)c2=N)cc1 (stereo unspecified) | i | -1.0% | 0.16
CCn1c(=O)c(C(=O)NCCNCCO)c(O)c2ccccc21 | i | -9.2% | -0.01
CCSc1nc2c(c(-c3ccc(C)o3)c1C#N)CCCC2 | i | -2.2% | /
CCOc1ccccc1CNC(=O)C1CCCN(c2nc3ccccc3o2)C1 (stereo unspecified) | i | 1.3% | -0.79
CC1CCN(CCCn2c(=S)[nH]c3ccccc3c2=O)CC1 | i | 2.0% | -1.2
CCOC(=O)C1CCN(C(=O)COc2ccc(Cl)cc2C)CC1 | i | 2.6% | /

Reformatted as a markdown table: part of the list above
| Molecule | MT1-MMP reporter | Hsc70 | WNV protease inh |
| --- | --- | --- | --- |
| N#Cc1c(/N=C/c2cc3ccccc3s2)sc2c1CCC2 | i | -2.7% | / |
| COc1ccc(N2CCN(C(CNC(=O)c3ccc4c(c3)OCO4)c3cccnc3)CC2)cc1 (stereo unspecified) | i | -7.0% | 0.67 |
| CCOC(=O)C1CCN(C(=O)COc2ccc(Cl)cc2C)CC1 | i | 2.6% | / |
| CSc1nsc(SCC(=O)NC2CCCCC2)n1 | i | 6.7% | -1.1 |
| CCOC(=O)CNC(=O)COc1ccc(Cl)cc1Br | i | -3.9% | -0.69 |

More entries:
SMILES | MT1-MMP reporter | Hsc70 | WNV protease inh
CCOC(=O)c1ccc(NC(=O)CN2C(=O)CSC2=O)cc1 | i | 6.5% | -0.92
COc1ccc(N2CCN(C(=O)COc3ccc4ccccc4c3)CC2)cc1 | i | -5.2% | -0.01
Cc1nc2ccccc2cc1O | i | 4.3% | 0.35
CC(=O)OCC(=O)[C@H]1CC[C@H]2[C@@H]3CC=C4C[C@@H](O)CC[C@]4(C)[C@H]3CC[C@]12C | i | -2.8% | -0.06
Cc1ccc(C(=O)COC(=O)c2cccs2)cc1 | 19µM* | -4.1% | /
Cc1cc(C)n(C(=O)CNC(=O)CCc2ccccc2)n1 | i | -3.5% | 0.4
CCc1nc2ccccc2c(NC(=O)CN2CCC(C)CC2)c1C | i | -1.7% | -0.69
CCc1c(C(=O)Nc2ccc(S(=O)(=O)N3CCOCC3)cc2)csc1C | i | 8.9% | 0.67
CCOC(=O)c1[nH]c2ccccc2c1NC(=O)CC(C)C | i | 4.8% | 0.38
